Source: PubChem BioAssay
hNpr1 antagonist – blocks ANP-stimulated signaling of human Npr1 receptor; Potency, µM (titrated, usually from 46.3 µM), for the others: at the top dose activity change, negative = inhibition, most hits filed as inhibitors; HEK293 hNpr1 GloSensor cGMP, ANP-stimulated luminescence; 76,000 tested, 1.6% active; P16066; active = well fitted inhibition curve with a large enough effect; inconclusive = small, poorly fitted or top-dose-only effect; inactive = no such curve, though single readings can be large or run the other way;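 note: nearly all actives have a fitted effect of over 60% in size; nearly all hits also lower the signal before the agonist is added; a reference antagonist and vehicle were the controls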
Target sequence (P16066 whole entry, looked up): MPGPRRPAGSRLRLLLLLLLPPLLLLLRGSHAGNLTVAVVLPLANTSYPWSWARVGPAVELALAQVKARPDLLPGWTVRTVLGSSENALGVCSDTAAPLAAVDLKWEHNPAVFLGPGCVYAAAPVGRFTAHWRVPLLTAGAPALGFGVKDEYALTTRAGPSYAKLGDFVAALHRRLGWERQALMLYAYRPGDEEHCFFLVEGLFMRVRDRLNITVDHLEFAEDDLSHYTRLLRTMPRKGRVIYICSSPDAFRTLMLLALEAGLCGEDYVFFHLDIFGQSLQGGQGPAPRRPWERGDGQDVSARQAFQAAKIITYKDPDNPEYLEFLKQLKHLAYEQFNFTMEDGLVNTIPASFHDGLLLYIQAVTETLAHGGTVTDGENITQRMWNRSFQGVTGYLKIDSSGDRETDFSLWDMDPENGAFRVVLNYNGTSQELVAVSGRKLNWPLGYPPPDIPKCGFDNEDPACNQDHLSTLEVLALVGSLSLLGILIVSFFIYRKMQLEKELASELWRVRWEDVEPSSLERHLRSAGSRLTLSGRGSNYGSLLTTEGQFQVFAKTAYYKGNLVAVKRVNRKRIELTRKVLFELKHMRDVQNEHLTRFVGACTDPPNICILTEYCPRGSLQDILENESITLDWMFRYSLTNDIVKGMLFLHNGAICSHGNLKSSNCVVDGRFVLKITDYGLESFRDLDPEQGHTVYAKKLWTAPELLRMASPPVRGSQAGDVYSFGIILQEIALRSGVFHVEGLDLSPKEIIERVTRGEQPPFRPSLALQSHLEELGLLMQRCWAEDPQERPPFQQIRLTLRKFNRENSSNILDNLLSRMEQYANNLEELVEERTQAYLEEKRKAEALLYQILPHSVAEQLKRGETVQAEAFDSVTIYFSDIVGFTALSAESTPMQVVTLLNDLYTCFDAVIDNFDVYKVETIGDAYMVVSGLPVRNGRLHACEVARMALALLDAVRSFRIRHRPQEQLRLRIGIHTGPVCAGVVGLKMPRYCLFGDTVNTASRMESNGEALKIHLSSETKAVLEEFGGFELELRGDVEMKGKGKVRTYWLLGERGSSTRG
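HEK293 cells stably expressing human Npr1 and cGMP GloSensor pGS-40F, loaded 2 h with 2% GloSensor reagent, given compound 30 min at room temperature. Luminescence read before and 20 min after 0.1 nM hNppA.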
Starred values were filed as active, the others as inactive; ? = inconclusive; & = joins results of further samples; [ ] = another dose, or the depositor's remark. % is set by controls: 0 for no effect and ±100 for the full control effect; potency is the fitted concentration of half-maximal effect. Some of the compounds tested; the hit share may differ from the screen's.

SMILES	hNpr1 antagonist
COc1ccccc1-c1cc([C@H]2CN3CC[C@H]2C[C@@H]3CNC(=O)c2cccs2)n(C)n1	8%
COc1ccc2c(c1)C1(CCN(C(=O)NC3CCCCC3)C1)C(=O)N2C (stereo unspecified)	-1%
CN(C[C@H]1CN2CC[C@H]1C[C@@H]2CNC(=O)c1ccc(C(F)(F)F)cc1)c1ccccc1	?
CN(C)[C@@H]1CN(C(=O)Cc2ccccc2)CCC1(O)c1ccccc1 (stereo partly specified)	-2%
CC(C)NC(=O)N1[C@H]2CC[C@@H]1c1cncnc1C2	20%
Cc1ccc(S(=O)(=O)NC[C@H]2C[C@@H]3CCN2C[C@@H]3CN2CCc3ccccc32)cc1	-9%[70.6 µM]
COc1cccc(-c2cnc3[nH]cc(CC(=O)N4CCN(C)CC4)c3c2)c1	-19%[70.6 µM]
COc1ccc(C(=O)N2C[C@@H]3C[C@H](C2)c2c(-c4cccs4)ccc(=O)n2C3)cc1	2%[70.6 µM]
CSCC(=O)Nc1ccc2n(c1=O)C[C@H]1C[C@@H]2CN(C(=O)COc2ccccc2)C1	-3%[70.6 µM]
O=C(CN1CCCC1=O)NCc1ccc(F)cc1Cl	0%
O=C(NC1CCCCC1)N1C[C@@H]2C[C@H](C1)c1c(-c3ccccc3F)ccc(=O)n1C2	4%[70.6 µM]
O=C(Nc1ccccc1)[C@H]1CN2CCC1C[C@@H]2Cn1cc(CO)nn1 (stereo partly specified)	3%[70.6 µM]
CN(C)Cc1cn(C[C@H]2CC3CCN2C[C@@H]3C(=O)NC2CCCCC2)nn1 (stereo partly specified)	0%[70.6 µM]
CCC(CC)c1cc([C@H]2CN3CC[C@H]2C[C@@H]3CNC(=O)CSCC(=O)O)nc(-c2ccncc2)n1	1%
COc1ccc([S+](=O)([O-])N2CC3(CCN(CC(=O)O)CC3)c3cc(OC)c(OCC4CCCC4)cc32)cc1	-2%
COc1cc2c(cc1OCc1ccccc1)NC(=O)C21CCN(Cc2c(C)noc2C)CC1	?
CC(C)NC(=O)[C@H]1CN2CCC1C[C@@H]2Cn1cc(CSc2ccccc2)nn1 (stereo partly specified)	3%[70.6 µM]
Cc1nc(-c2ccccc2)cc([C@H]2CN3CC[C@H]2C[C@@H]3CNC(=O)NC(C)C)n1	-7%[70.6 µM]
COc1ccc(OC)c(S(=O)(=O)NC[C@H]2C[C@@H]3CCN2C[C@@H]3c2cc(-c3cccs3)nn2C)c1	-15%
Cc1ccc(CC(=O)N2CCN(C3CCN(Cc4cccnc4)C3=O)CC2)cc1 (stereo unspecified)	-9%
O=C(NCc1cccnc1)[C@H]1CN2CCC1C[C@@H]2Cn1cc(-c2ccc(-c3ccccc3)cc2)nn1 (stereo partly specified)	-4%
O=C(Nc1ccc(=O)n2c1[C@@H]1C[C@@H](CN(C(=O)NC3CCCCC3)C1)C2)c1ccco1	-4%[70.6 µM]
CC(C)NC(=O)NC[C@H]1C[C@@H]2CCN1C[C@@H]2CN1CCN(c2ncccn2)CC1	4%[70.6 µM]
CC(C)CN1Cc2ccccc2-n2ccnc2C12CCN(C(=O)C(C)C)CC2	-3%
COCCN1CCOC[C@H]2CCNC[C@H]21	5%
Fc1ccc(CC2CCOC3(CCNCC3)C2)cc1 (stereo unspecified)	5%
Cn1nc(C2CCCCC2)cc1[C@H]1CN2CC[C@H]1C[C@@H]2CNC(=O)c1cccs1	-2%[70.6 µM]
CC(C)CN1Cc2ccccc2-n2ccnc2C12CCN(C(=O)c1cccs1)CC2	-19%
Cc1nccc(N2CCN(C)C3(CCC(=O)N(C)CC3)C2)n1 (stereo unspecified)	-2%
CC1=NOC2(CCN(Cc3ccc(F)cc3)C2)C1 (stereo unspecified)	-19%[70.6 µM]
CCCCc1cn(C[C@H]2C[C@@H]3CCN2C[C@@H]3C(=O)NCCNC(C)=O)nn1	0%[70.6 µM]
COc1ccc(CN(Cc2ccc(OC)cc2)C[C@H]2C[C@@H]3CCN2C[C@@H]3c2cc(C3CCCC3)nn2C)cc1	2%
O=C1N(c2ccccn2)C[C@H]2CN(Cc3ccccc3)CCN12	-21%[70.6 µM]
COc1ccc(S(=O)(=O)N2[C@H]3CC[C@@H]2c2cncnc2C3)cc1	14%
Cc1ncc2c(n1)C[C@@H]1CC[C@H]2N1C(=O)CCCc1ccccc1	4%
O=C(C1CCCC1)N1[C@H]2CC[C@@H]1c1cnc(-c3ccc(F)cc3)nc1C2	10µM*
Cc1nc(-c2ccco2)cc([C@H]2CN3CC[C@H]2C[C@@H]3CNC(=O)c2cccs2)n1	-1%[70.6 µM]
N#Cc1cccc(NC(=O)NC[C@H]2C[C@@H]3CCN2C[C@@H]3CN2CCN(c3ccccn3)CC2)c1	-1%
COc1cc2c(cc1OCc1ccccc1)N(C(=O)c1c[nH]c3ccccc13)CC21CCN(C)CC1	-4%
COc1ccc2c(c1)C1(CCN(C(=O)c3cccc(N(C)C)c3)C1)C(=O)N2C (stereo unspecified)	-10%
COc1ccc(S(=O)(=O)N2C[C@@H]3C[C@H](C2)c2c(-c4cccs4)ccc(=O)n2C3)cc1	1%
COc1ccccc1CNC(=O)[C@H]1CN2CC[C@H]1C[C@@H]2Cn1cc(-c2ccccn2)nn1	-2%[70.6 µM]
Cc1nc(-c2ccc(F)cc2)cc([C@H]2CN3CC[C@H]2C[C@@H]3CNC(=O)NCc2ccccc2)n1	2%
C#C[C@H]1CN2CC[C@H]1C[C@@H]2CNC(=O)c1ccc2c(c1)OCO2	7%[70.6 µM]
Cn1cc(CN2CCN3C(=O)N(Cc4ccccn4)C[C@H]3C2)cn1	4%[70.6 µM]
Cc1cccc(CN2C[C@@H]3C[C@H]2C(=O)N(C)c2ccccc2O3)n1	1%[70.6 µM]
Cc1ccsc1C(=O)C1CCCN(Cc2cccc(F)c2)C1 (stereo unspecified)	0%
O=C1N(c2ccccn2)C[C@H]2CN(CC3CC3)CCN12	2%[70.6 µM]

14 neighbouring entries from above:
SMILES	hNpr1 antagonist
CN(C)Cc1cn(C[C@H]2CC3CCN2C[C@@H]3C(=O)NC2CCCCC2)nn1 (stereo partly specified)	0%[70.6 µM]
CCC(CC)c1cc([C@H]2CN3CC[C@H]2C[C@@H]3CNC(=O)CSCC(=O)O)nc(-c2ccncc2)n1	1%
COc1ccc([S+](=O)([O-])N2CC3(CCN(CC(=O)O)CC3)c3cc(OC)c(OCC4CCCC4)cc32)cc1	-2%
COc1cc2c(cc1OCc1ccccc1)NC(=O)C21CCN(Cc2c(C)noc2C)CC1	?
CC(C)NC(=O)[C@H]1CN2CCC1C[C@@H]2Cn1cc(CSc2ccccc2)nn1 (stereo partly specified)	3%[70.6 µM]
Cc1nc(-c2ccccc2)cc([C@H]2CN3CC[C@H]2C[C@@H]3CNC(=O)NC(C)C)n1	-7%[70.6 µM]
COc1ccc(OC)c(S(=O)(=O)NC[C@H]2C[C@@H]3CCN2C[C@@H]3c2cc(-c3cccs3)nn2C)c1	-15%
Cc1ccc(CC(=O)N2CCN(C3CCN(Cc4cccnc4)C3=O)CC2)cc1 (stereo unspecified)	-9%
O=C(NCc1cccnc1)[C@H]1CN2CCC1C[C@@H]2Cn1cc(-c2ccc(-c3ccccc3)cc2)nn1 (stereo partly specified)	-4%
O=C(Nc1ccc(=O)n2c1[C@@H]1C[C@@H](CN(C(=O)NC3CCCCC3)C1)C2)c1ccco1	-4%[70.6 µM]
CC(C)NC(=O)NC[C@H]1C[C@@H]2CCN1C[C@@H]2CN1CCN(c2ncccn2)CC1	4%[70.6 µM]
CC(C)CN1Cc2ccccc2-n2ccnc2C12CCN(C(=O)C(C)C)CC2	-3%
COCCN1CCOC[C@H]2CCNC[C@H]21	5%
Fc1ccc(CC2CCOC3(CCNCC3)C2)cc1 (stereo unspecified)	5%

Remaining list, next part.
SMILES	hNpr1 antagonist
Cc1cc(CN2CCCC3(C2)NC(=O)c2ccccc2O3)no1 (stereo unspecified)	20%[70.6 µM]
COCCOCC(=O)N1[C@H]2CC[C@@H]1c1cnc(-c3ccc(F)cc3)nc1C2	-10%
Cc1cc(-c2cc3c(cn2)CN(CC(C)C)CCN3)ccn1	1%[70.6 µM]
O=S(=O)(c1cccs1)N1C[C@@H](c2ccc(F)cc2)[C@@H]2[C@H]1C1CCN2CC1	0%
CN1CCN(Cc2cccc(OC(F)F)c2)CC1CCO (stereo unspecified)	0%
O=C(c1cccs1)N1[C@H]2CC[C@@H]1c1cnc(-c3ccc(F)cc3)nc1C2	11µM*
Cn1cc(C(=O)N2[C@H]3CC[C@@H]2c2cnc(-c4ccccc4)nc2C3)cn1	3%
CC(C)CC(=O)N1CC[C@@H]2COCCN(C)[C@@H]2C1	7%
COCCNC(=O)[C@H]1CN2CC[C@H]1C[C@@H]2Cn1cc(CC2CCCCC2)nn1	0%[70.6 µM]
Cc1cc(CN2CCC23Cc2ccccc2NC3=O)no1 (stereo unspecified)	-2%[70.6 µM]
COCC1CN(Cc2ccncc2)CC12CCNCC2 (stereo unspecified)	5%
O=C(NC[C@H]1C[C@@H]2CCN1C[C@@H]2CN1CCCCC1)c1ccc(C(F)(F)F)cc1	2%[70.6 µM]
CC(C)NC(=O)N1C[C@@H]2C[C@H](C1)c1c(-c3ccccc3F)ccc(=O)n1C2	2%[70.6 µM]
Cc1nc(-c2ccccc2Br)cc([C@H]2CN3CC[C@H]2C[C@@H]3CNC(=O)c2ccc(C(C)(C)C)cc2)n1	-12%
CC(C)CCN1CCC2(CC1)CC(c1cccnc1)=NO2	31%&-13%[activator][70.6 µM]
COc1cc2c(cc1Oc1ccccc1)NC(=O)C21CCN(c2ncccn2)CC1	-30%[70.6 µM]
O=C(c1ccc(F)cc1)N1C[C@@H]2C[C@H](C1)c1c(/C=C/c3ccc(Cl)cc3)ccc(=O)n1C2	-19%
COc1ccc(-c2cn(C[C@H]3C[C@@H]4CCN3C[C@@H]4C(=O)NCc3ccccc3)nn2)cc1	-7%[70.6 µM]
O=C(c1ccccc1)N1C[C@@H]2C[C@H](C1)c1c(-c3ccccc3F)ccc(=O)n1C2	-17%[70.6 µM]
Cc1ncc2c(n1)C[C@@H]1CC[C@H]2N1C(=O)CCc1ccccc1	6%
Cc1nc(-c2ccc(C(F)(F)F)cc2)cc([C@H]2CN3CC[C@H]2C[C@@H]3CNC(=O)c2ccccc2C(=O)O)n1	5%
C#C[C@H]1CN2CC[C@H]1C[C@@H]2COC(=O)NCCC	0%[70.6 µM]
COc1ccccc1C(=O)N1[C@H]2CC[C@@H]1c1cnc(-c3ccc(F)cc3)nc1C2	8.9µM*
COc1ccc(S(=O)(=O)NC[C@H]2C[C@@H]3CCN2C[C@@H]3CN2CCC(Cc3ccccc3)CC2)cc1	-16%
Cc1nc(-c2cccs2)cc([C@H]2CN3CC[C@H]2C[C@@H]3CNC(=O)c2ccccc2)n1	-16%[70.6 µM]
C#C[C@H]1CN2CC[C@H]1C[C@@H]2CNC(=O)CC(C)(C)C	-1%[70.6 µM]
Cc1cc2c(N3CCC(N4C[C@@H]5CCN[C@@H]5C4)CC3)ncnc2s1	2%
Cc1ccc([C@@H]2CN(Cc3ncc[nH]3)[C@@H]3C4CCN(CC4)[C@@H]32)cc1	2%
CC(=O)c1cccc(NC(=O)NC[C@H]2C[C@@H]3CCN2C[C@@H]3c2cc(-c3cccs3)nc(C)n2)c1	-2%
CC(=O)NC[C@H]1C[C@@H]2CCN1C[C@@H]2c1cc(-c2ccc(F)cc2)nc(C)n1	-4%[70.6 µM]
CC(C)NC(=O)NC[C@H]1C[C@@H]2CCN1C[C@@H]2CN1CCCCC1	?
O=C(Cc1ccccc1F)N1CCN(C2CCN(Cc3cccnc3)C2=O)CC1 (stereo unspecified)	1%
C=C[C@H]1CN2CC[C@H]1C[C@@H]2CNS(=O)(=O)c1cccc(F)c1	0%[70.6 µM]
COc1ccc(-c2cc([C@H]3CN4CC[C@H]3C[C@@H]4COC(=O)Nc3ccccc3)n(C)n2)cc1	-6%
COc1ccc(-c2cc([C@H]3CN4CC[C@H]3C[C@@H]4CNS(=O)(=O)c3cc(OC)ccc3OC)n(C)n2)cc1	-4%
Cc1nc(-c2ccccc2Br)cc([C@H]2CN3CC[C@H]2C[C@@H]3CNC(=O)CSCC(=O)O)n1	0%
CC(=O)N1C[C@@H]2C[C@H](C1)c1ccc(NC(=O)COc3ccccc3)c(=O)n1C2	-2%[70.6 µM]
O=C(Cc1cccc(F)c1)N1CCN(C2CCN(Cc3cccnc3)C2=O)CC1 (stereo unspecified)	-3%
N#Cc1cccc(NC(=O)NC[C@H]2C[C@@H]3CCN2C[C@@H]3CN2CCSCC2)c1	-11%[70.6 µM]
O=C(O)COCC(=O)N1C[C@@H]2C[C@H](C1)c1ccc(-c3cc4ccccc4s3)c(=O)n1C2	3%
COc1ccccc1CNC(=O)[C@H]1CN2CC[C@H]1C[C@@H]2Cn1cc(-c2ccccc2)nn1	1%[70.6 µM]
COCC1CN(C(=O)N(C)C)CC12CCNCC2 (stereo unspecified)	5%
O=C1CO[C@H]2CN(Cc3ccccc3)C[C@H]2N1Cc1ccccn1	5%[70.6 µM]
CN1C(=O)[C@H]2CN(Cc3ccsc3)C[C@H]2C1=O	-1%
Cc1ncc2c(n1)C[C@@H]1CC[C@H]2N1S(=O)(=O)c1ccc2c(c1)OCCO2	4%
COc1ccc(-c2cn(C[C@H]3CC4CCN3C[C@@H]4C(=O)NC3CCCCC3)nn2)cc1 (stereo partly specified)	6%[70.6 µM]
COCCOc1ccc2c(n1)CCNC2	-23%
N#Cc1ccc(C(=O)N2C[C@@H]3C[C@H](C2)c2c(-c4ccccc4F)ccc(=O)n2C3)cc1	-7%[70.6 µM]
Cc1ccc(OCC(=O)N2CCN(Cc3ccc(=O)n(C)c3)CC2)cc1	1%
COCc1cn(C[C@H]2C[C@@H]3CCN2C[C@@H]3C(=O)NCc2ccco2)nn1	4%[70.6 µM]
Cc1nc(-c2ccc(F)cc2)cc([C@H]2CN3CC[C@H]2C[C@@H]3CNC(=O)Nc2cccc(C#N)c2)n1	-15%
